FEN1 inh = qHTS Assay for the Inhibitors of Human Flap endonuclease 1 (FEN1) | Recombinant FEN1 flap cleavage, fluorescence, 15 min | Potency, µM (doses to about 114 µM), inactives show at the top dose activity change, negative = inhibition, usual class: inhibitors | hit rate 0.35% among 390,000 | AID 588795, 2011 | P39748; further: nearly all actives have a fitted effect of over 65% in size
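In this screen, 50 nM flap DNA substrate was added to 10 nM FEN1 pretreated with compound for 15 min at room temperature; cleavage was followed with reads at 0 and 15 min, and Hill fitting gave concentration–response parameters.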
GCN5L2 inh = qHTS Assay for Inhibitors of GCN5L2. Histone acetyltransferase KAT2A (Homo sapiens), Q92830. GCN5L2 HAT assay, ThioGlo1 CoA-SH fluorescence. Potency, µM (highest dose often 58.9 µM), inactives show at the highest dose activity change, negative = inhibition, actives largely listed as inhibitors. hit rate 0.21% among 390,000
Target sequence (Q92830 whole entry, looked up): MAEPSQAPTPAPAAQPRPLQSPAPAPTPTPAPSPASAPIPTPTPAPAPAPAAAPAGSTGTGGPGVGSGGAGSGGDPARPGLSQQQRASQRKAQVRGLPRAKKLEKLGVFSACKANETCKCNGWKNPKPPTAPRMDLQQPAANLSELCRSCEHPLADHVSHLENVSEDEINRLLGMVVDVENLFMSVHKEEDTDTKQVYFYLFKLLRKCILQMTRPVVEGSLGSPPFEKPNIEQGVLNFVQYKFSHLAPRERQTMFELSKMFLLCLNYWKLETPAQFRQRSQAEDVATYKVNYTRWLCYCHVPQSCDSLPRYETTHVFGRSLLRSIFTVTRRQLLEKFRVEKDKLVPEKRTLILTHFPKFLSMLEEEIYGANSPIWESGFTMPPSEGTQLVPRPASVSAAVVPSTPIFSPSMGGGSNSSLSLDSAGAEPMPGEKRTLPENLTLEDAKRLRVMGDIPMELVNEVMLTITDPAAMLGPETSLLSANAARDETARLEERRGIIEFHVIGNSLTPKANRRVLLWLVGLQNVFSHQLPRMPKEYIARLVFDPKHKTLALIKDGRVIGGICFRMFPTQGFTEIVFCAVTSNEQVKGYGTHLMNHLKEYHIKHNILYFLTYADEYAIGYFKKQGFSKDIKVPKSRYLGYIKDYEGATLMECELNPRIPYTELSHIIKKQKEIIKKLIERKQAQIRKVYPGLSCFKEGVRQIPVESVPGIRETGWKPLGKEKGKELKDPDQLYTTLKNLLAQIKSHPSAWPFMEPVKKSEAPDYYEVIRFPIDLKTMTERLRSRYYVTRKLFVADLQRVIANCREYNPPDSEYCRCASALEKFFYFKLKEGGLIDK
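GCN5L2 (20 nM) in 50mM HEPES pH 7.5, 0.1mM EDTA, 0.01% Tween-20 preincubated 15 min with compounds at room temperature. Reaction started with H3(1-25) 75uM, acetyl-CoA 70uM, ThioGlo1 50uM; CoA-thiol fluorescence (Ex340/Em540) read at 0 and 20 min.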
The depositor's hits bear a star; & = joins results of further samples. The call rests on the fitted dose curve; in most records, active means well fitted curve in the direction sought with a large enough effect; inconclusive means small, poorly fitted or top-dose-only effect, or another doubt; inactive means no such curve, though single readings can be large; an effect the other way counts as inactive or inconclusive. On the % scale 0 is the no-effect control and ±100 the full control effect; potency means the concentration at half of the fitted maximal effect. These rows are one share of the data; most or all hits stand in other tables.

canonical_smiles	FEN1 inh	GCN5L2 inh
COc1ccc(/C=C/C(=O)OCC(=O)Nc2cccc(Oc3ccccc3)c2)c(OC)c1	6%	-12%
COc1cccc(OCC(=O)NNC(=O)CCc2ccccc2)c1	13%	-8%
CC(=O)Oc1ccc(C(=O)Nc2cccc(-c3nnc(-c4ccco4)o3)c2)cc1	-1%	-13%
O=C(NCc1ccc2c(c1)OCO2)C1CCCN(S(=O)(=O)c2cccs2)C1 (configuration not stated)	8%	0%
CCC(=O)N1c2ccccc2CC1C(=O)NCc1ccccc1Cl (configuration not stated)	3%	-1%
Cc1cccc(NC(=O)c2ccc(Cn3nc(N4CCN(c5ccccc5)CC4)ccc3=O)o2)c1C	-5%	-3%
Cc1ccccc1-c1nc(CS(=O)(=O)CC(=O)N2CCc3ccccc3C2)c(C)o1	17%	0%
COc1cccc(C(=O)N2CCN(Cc3cccc(F)c3)CC2)c1	-14%	0%
CSCC(=O)N1CCCC(CO)(Cc2ccccc2C)C1 (configuration not stated)	-2%	7%
CCCOC(=O)c1ccc(-n2nnnc2SCC(=O)N2CCCCC2)cc1	0%	2%
CCOCCCNC(=O)c1ccc(OC2CCN(C(C)=O)CC2)c(OC)c1	-3%	-11%
CN(C)c1ccc(C(c2nnnn2CCOC(=O)Nc2ccc(Cl)cc2)N2CCOCC2)cc1 (configuration not stated)	-10%	-28%
O=C(NCCCc1nc2ccccc2[nH]1)c1ccco1	17%	-1%
Cc1ccc(NS(=O)(=O)c2ccc(-c3ccc(=O)[nH]n3)o2)cc1	12%	-1%
O=C(Nc1c2c(nn1-c1ccccc1)CS(=O)C2)c1ccc(S(=O)(=O)N2CCOCC2)cc1 (configuration not stated)	23%	-11%

Arranged by count of non-hydrogen atoms (largest number first): some entries from above.
canonical_smiles	FEN1 inh	GCN5L2 inh
COc1ccc(/C=C/C(=O)OCC(=O)Nc2cccc(Oc3ccccc3)c2)c(OC)c1	6%	-12%
CCCOC(=O)c1ccc(-n2nnnc2SCC(=O)N2CCCCC2)cc1	0%	2%
Cc1ccc(NS(=O)(=O)c2ccc(-c3ccc(=O)[nH]n3)o2)cc1	12%	-1%

(list continues)
canonical_smiles	FEN1 inh	GCN5L2 inh
COc1ccc(-c2cc(C(F)F)n3ncc(C(=O)N4CCSCC4)c3n2)cc1	-2%	-11%
Cc1ccc(NC(=O)/C(C#N)=C\c2ccc(Cl)cc2Cl)cc1C	-20%	-6%
COc1ccccc1-n1cnc2cc(NCc3ccccc3O)ccc21	-15%	-3%
C=CCNc1ncnc2c1[nH]c1ccccc12	-21%	1%
COc1ccccc1NC(=S)Nc1ccccn1	6%	6%
COc1ccc(CC(=O)NC2CCSc3ccccc32)c(OC)c1 (configuration not stated)	11%	-3%
Cc1cc(C)cc(NC(=O)c2ccc3oc(=O)c(S(=O)(=O)c4ccc(F)cc4)cc3c2)c1	-5%	5%
C(=N\N1CCOCC1)/c1nc(-c2ccccc2)n2ccccc12	4%	-6%
CC(=O)N1c2c(cc(Br)cc2S(=O)(=O)NCc2ccccc2)CC1C (configuration not stated)	-1%	-2%
C/C(=N\NC(=O)COc1ccc(C)cc1Br)c1cc([N+](=O)[O-])cs1	4%	4%
Cc1ccc2nc3c(cc(C(=O)NCCc4ccccc4)c(=N)n3CCCN3CCOCC3)c(=O)n2c1	1%	-2%
CCc1ccccc1NC(=O)CSc1ncc(S(=O)(=O)c2ccccc2)c(N)n1	-7%	-3%
CCc1nn2c(-c3ccco3)ccnc2c1-c1ccccc1	-4%	1%
CC(NC(=O)Cc1ccc(F)cc1)C(c1cccs1)N1CCN(C)CC1 (configuration not stated)	-1%	-2%
O=C(COC(=O)c1ccc(O)cc1)NC(=O)NCc1ccccc1	3%	1%

Full records from above. Order of values: FEN1 inh, GCN5L2 inh
`Cc1ccc(NC(=O)/C(C#N)=C\c2ccc(Cl)cc2Cl)cc1C` in the list: -20%, -6%
`COc1ccccc1NC(=S)Nc1ccccn1` in the list: 6%, 6%
`COc1cccc(C(=O)N2CCN(Cc3cccc(F)c3)CC2)c1` in the list: -14%, 0%

Next part
canonical_smiles	FEN1 inh	GCN5L2 inh
Cc1occc1C(=O)N(Cc1nc(-c2ccccc2)no1)C(C)C	-2%	-6%
Cc1ccc(CNC(=O)c2nc(SCc3ccc(F)cc3)ncc2Cl)cc1	-1%	-10%
Cc1ccc(NC(=S)Nc2ccc(OC(F)F)c(Cl)c2)cc1Cl	11%	-2%
c1ccc(CCNc2nc3ccccc3n3nnnc23)cc1	-1%	-1%
Cc1ccc(S(=O)(=O)CCC(=O)N2CCN(c3nc4c(C)c(C)ccc4s3)CC2)cc1	-14%	-4%
Cc1ccc2c(CC(=O)N3CCN(S(=O)(=O)c4cccs4)CC3)coc2c1	2%	-7%
Cc1cc(C)c2sc(N(CCCN(C)C)C(=O)c3ccc(S(=O)(=O)N(C)C4CCCCC4)cc3)nc2c1	-13%	-5%
CCOc1cc(C(c2c(C)[nH][nH]c2=O)c2c(C)[nH][nH]c2=O)ccc1OS(=O)(=O)c1ccccc1	0%	-12%
COC(=O)CN1C(c2ccc(Cl)cc2)=Nc2ccc(Cl)cc2C1c1ccccc1 (configuration not stated)	-9%	7%
Cc1ccc(NC(=O)CCC(C(=O)O)N2C(=O)c3ccccc3C2=O)cc1 (configuration not stated)	10%	-9%
C=CCNC(=O)COc1ccc(S(=O)(=O)Nc2ccc(OCC)cc2)cc1	10%	2%
CCN(CC(=O)NCc1ccc(F)cc1)C(=O)c1ccc2c(c1)OCO2	-10%	3%
NCc1ccccc1CS(=O)(=O)N1CCOCC1	1%	-5%
COc1ccc(/C=C/C(=O)NC(=S)N2CCN(C)CC2)cc1	2%	-17%
CCOc1ccc(OCC)c(NS(=O)(=O)c2ccc(-c3coc(C)n3)cc2)c1	-3%	-8%

Single values from above:
In FEN1 inh, Cc1occc1C(=O)N(Cc1nc(-c2ccccc2)no1)C(C)C reads -2%
In FEN1 inh, C=CCNC(=O)COc1ccc(S(=O)(=O)Nc2ccc(OCC)cc2)cc1 reads 10%
In GCN5L2 inh, COc1ccc(/C=C/C(=O)NC(=S)N2CCN(C)CC2)cc1 reads -17%
In GCN5L2 inh, Cc1ccc(S(=O)(=O)CCC(=O)N2CCN(c3nc4c(C)c(C)ccc4s3)CC2)cc1 reads -4%
In GCN5L2 inh, Cc1ccc2c(CC(=O)N3CCN(S(=O)(=O)c4cccs4)CC3)coc2c1 reads -7%
In FEN1 inh, NCc1ccccc1CS(=O)(=O)N1CCOCC1 reads 1%

Continued:
canonical_smiles	FEN1 inh	GCN5L2 inh
Cc1ccc(/C=C2\SC(=S)N(CCCC(=O)Nc3nccs3)C2=O)cc1	-1%	-15%
C#CC(CC)(CC)NC(=O)c1nn(-c2ccccc2Cl)c(C)cc1=O	-12%	2%
FC(F)(F)c1cc(-c2cccs2)nc(-n2cc(Br)cn2)n1	2%	-7%
COc1ccc(OCC(=O)Nc2ccccc2C(=O)NC2CC2)cc1	14%	-17%
Cn1c(=O)c2c(nc(NCCCCO)n2Cc2ccccc2Cl)n(C)c1=O	-7%	-8%
CN(C1CCCCC1)S(=O)(=O)c1ccc(NC(=O)c2ccco2)cc1	3%	-4%
CCCCNC(=O)NS(=O)(=O)c1cnccc1Sc1ccc(Cl)cc1	-4%	-17%
COc1ccc(C(=O)CN2C(=O)N(c3ccc(C(C)=O)cc3)S(=O)(=O)c3ccccc32)cc1	-9%	0%
CCCCc1nn2c(=O)cc(COC(=O)CNC(=O)c3ccccc3C)nc2s1	15%	-1%
NC1=NC(=O)CC(C(=O)NCCc2ccccc2)S1 (configuration not stated)	0%	-1%
COC(=O)c1cnn(C(=O)c2cc(OC)ccc2Br)c1N	5%	-14%
COc1ccc(S(=O)(=O)NCc2cccnc2)cc1NC(=O)c1ccc(Cl)cc1	-7%	-7%
CC1CC(N(C(=O)c2ccco2)c2ccccc2)c2ccccc2N1C(=O)c1ccco1 (configuration not stated)	1%	-9%
COc1ccc(C2=NOC(Cn3nc(C(=O)NCc4ccc5c(c4)OCO5)cc3-c3ccccc3)C2)cc1 (configuration not stated)	-13%	-3%
CCOc1ccc(S(=O)(=O)N2CCN(C(=O)COc3ccc(Br)cc3)CC2)cc1	-2%	-6%
CCOC(=O)CSc1nc2ccccc2c(=O)n1NC(=O)c1ccccc1	1%	1%
CCOC(=O)c1c(C)nc2sc(C(=O)Nc3ccc(OC)cc3)c(N)c2c1-c1ccc(OC)cc1	-19%	-1%
CC1CCCCC1NC(=O)CSc1nnc(N)s1 (configuration not stated)	-6%	-7%
N#CC(c1nc2ccccc2nc1OCCO)S(=O)(=O)c1ccccc1 (configuration not stated)	20%	-2%
Cc1c(C(=O)N2CCCCC2)c(S(=O)(=O)NCCc2ccc(S(N)(=O)=O)cc2)c(C)n1C	-16%	-4%
Cc1ccc(-c2ccc(SCC(=O)N3CCN(c4ccccc4)CC3)nn2)cc1	6%	8%
COc1ccccc1C(=O)NNC(=O)c1ccc(NC(=O)C(C)C)cc1	7%	0%
O=C(CSc1ccc([N+](=O)[O-])cn1)Nc1ccc2c(c1)OCO2	-5%	0%
O=[N+]([O-])c1cccc(/C=N/N2CCN(Cc3ccc(Cl)cc3)CC2)c1	-18%	-8%
O=C(NC12CC3CC(CC(C3)C1)C2)C1CCCN1C(=O)NC1CCCCC1 (configuration not stated)	-14%	-5%
O=C(c1cc(-c2ccc(Cl)cc2)on1)N1CCN(c2ccccc2)CC1	5%	-5%
COc1cc2c(cc1CNC[C@H]1O[C@@H](n3cnc4c(N)ncnc43)[C@H](O)[C@@H]1O)OCO2	-17%	-2%
O=C(COC(=O)c1cccc(Oc2ccccc2)c1)NCc1ccco1	-3%	-4%
CCOc1ccc(CNC(=O)c2ccc(NC(=O)C3=CSCCO3)cc2)cc1	0%	-10%
CCCCn1c(=NC(=O)c2c(-c3c(F)cccc3Cl)noc2C)c(C(=O)OCC)cc2c(=O)n3ccccc3nc21	3%	-8%
COC(=O)C1CCN(C(=O)COC(=O)c2n[nH]c3ccccc23)CC1	2%	0%
CC(Sc1nc(-c2ccco2)nc2c1c(=O)n(C)c(=O)n2C)C(=O)O (configuration not stated)	17%	-5%
Cc1ccc2nc(-c3ccc(C)o3)c(Nc3ccc4c(c3)OCCO4)n2c1	10%	18%
O=C(COC(=O)c1ccc(S(=O)(=O)Nc2ccccc2)cc1)NCCC1=CCCCC1	-10%	-8%
O=C(Nc1ccc(O)c2c(=O)cc(-c3ccccc3Cl)oc12)c1cccs1	-11%&16%	-6%
C[C@H](CO)N1C[C@H](C)[C@@H](CN(C)S(=O)(=O)c2ccc(F)cc2)Oc2c(NS(=O)(=O)c3ccccc3)cccc2C1=O	-4%	0%
CCOC(=O)c1sc(NC(=O)Cc2ccc(C)cc2)nc1C	-12%	-10%
O=C(CCNS(=O)(=O)c1ccc2[nH]c(=O)oc2c1)NCc1ccccc1	20%	2%

Reprinted at random: 3 compounds from above
canonical_smiles	FEN1 inh	GCN5L2 inh
O=C(CCNS(=O)(=O)c1ccc2[nH]c(=O)oc2c1)NCc1ccccc1	20%	2%
CCOC(=O)c1sc(NC(=O)Cc2ccc(C)cc2)nc1C	-12%	-10%
O=C(COC(=O)c1ccc(S(=O)(=O)Nc2ccccc2)cc1)NCCC1=CCCCC1	-10%	-8%

Screening data as filed in PubChem.
